Sa RN4220 lethal: growth inhibition of S. aureus RN4220, primary screen, OD600 | 16 h | inhibition, % (no concentration beside the values) | actives 0.33% (n = 330,000);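 active = z-score of -3 or lower and OD600 up to 0.18 on both plates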;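 also: plate controls were untreated cells for no effect and reference antibiotic for full effect; stock transfer was 100 nL into about 80 µL; one replicate is shown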
ugtP null kill: growth inhibition of ugtP-null S. aureus, primary screen, RN4220 ugtP deletion, OD600 | growth inhibition, % (concentration not given with the values) | actives 0.54% (n = 330,000) | AID 1259309, 2017 | 16 h; some inactives read as strong as hits;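 active = z-score under -3 and OD600 up to 0.15 on both plates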;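 also: plate controls were untreated wells for no effect and antibiotic for full effect; wells of about 80 µL received 100 nL stock; the first replicate is given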
Autofluor counter: compound fluorescence in toxin protease inhibitor counterscreen; compound autofluorescence counterscreen, microsphere flow cytometry; active compounds read high; fluorescence intensity (concentration not given with the values); actives 3.1% (n = 360,000);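 active = at least 3 SD above the mean of all compounds, about 16000 in these data; inconclusive = too few beads counted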;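 also: 100 nL of 1 mM stock went into each well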
Mtb hypoxia rep: PubChem AID 1159583. fluorescence inhibition, % (concentration not given with the values). actives 0.1% (n = 300,000). M. tuberculosis hypoxia-regulated fluorescent reporter, fluorescence;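 active = 35 to 45% if threefold the growth effect, above 45% if 1.5-fold the growth effect; inactive = the rest, general growth blockers included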;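 also: wells of about 50 µL received 100 nL stock; 0% = vehicle wells and 100% = reference inhibitor wells; whole bacteria with a GFP reporter of the hypoxia response; strong numbers were not always called active; many hits fall short of the cut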
PrP 5UTR inh: inhibition of PrP 5' UTR reporter expression | actives 0.35% (n = 340,000) | inhibition, % (test concentration not listed) | AID 488862, 2010 | cell-based PrP 5' UTR mRNA reporter, plate reader;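 active = every replicate at 50% or more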;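 also: 0 = median of the neutral control wells; tested in H4 reporter cells; numbers are from one replicate; inactives centre near -14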
BJeLR viability: MLPCN primary cell-based screen for lethality selective to Ras in HRASV12 cells. inhibition, % (no concentration beside the values). AID 1554, 2009. actives 0.17% (n = 300,000). BJeLR (HRASV12) viability, CellTiter-Glo ATP luminescence, 48 h; reference of the scale not given here;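 active = replicate mean above 50%; inconclusive = above 50% but judged a plate artefact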;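 also: 50 nL library stock added to about 25 µL; numbers are from one replicate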
Mtb hypoxia rep growth: also measured in Mtb hypoxia rep; calls as there; growth inhibition, %; measured here: M. tuberculosis growth (absorbance);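 0% = vehicle and 100% = reference antibiotic; read after six days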
The depositor's hits bear a star.

For O=C(NCc1ccc(F)cc1)c1nc(-c2cccs2)no1 the results were Sa RN4220 lethal -2.5, ugtP null kill 9, Autofluor counter 2397, Mtb hypoxia rep 9, PrP 5UTR inh -11, BJeLR viability -1 and Mtb hypoxia rep growth 12.
COc1cccc(NC(=O)COC(=O)CCC(=O)c2cccs2)c1 was read as Sa RN4220 lethal 3.0, ugtP null kill 1, Autofluor counter 8014, Mtb hypoxia rep 7, PrP 5UTR inh -16 and Mtb hypoxia rep growth 2.
`C=CCOC(=O)C1=C(C)NC(SCC(=O)N(CC)CC)=C(C#N)C1c1ccccc1` (centres undefined) gave Sa RN4220 lethal 1.6, ugtP null kill 3, Autofluor counter 3819, PrP 5UTR inh -2 and BJeLR viability -4.
For CCOc1ccc(Cn2c(O)cc(=O)[nH]c2=O)cc1 the results were Sa RN4220 lethal 0.0, ugtP null kill -3, Autofluor counter 2961, Mtb hypoxia rep -4, PrP 5UTR inh -22, BJeLR viability -5 and Mtb hypoxia rep growth 11.
`Cc1cccc(NC2=NC3(CCCCC3)N=C(N)N2)c1` gave Sa RN4220 lethal 0.0, ugtP null kill -4, Autofluor counter inconclusive, Mtb hypoxia rep -3, PrP 5UTR inh -17 and Mtb hypoxia rep growth -10.
Cc1c(Br)c([N+](=O)[O-])nn1CC(=O)Nc1nccs1 was read as Sa RN4220 lethal 4.4, ugtP null kill -2, Autofluor counter 4171, Mtb hypoxia rep -10, PrP 5UTR inh 2, BJeLR viability -1 and Mtb hypoxia rep growth 2.
Cc1cc(N)ccc1NC(=O)c1ccccc1 was read as Sa RN4220 lethal 3.0, ugtP null kill 13, Autofluor counter 6534, Mtb hypoxia rep 17, PrP 5UTR inh -16, BJeLR viability -3 and Mtb hypoxia rep growth 8.
Screening O=C(CCCCCn1c(=S)[nH]c2cc3c(cc2c1=O)OCO3)N1CCN(C2CCCCC2)CC1 returned Sa RN4220 lethal 2.4, ugtP null kill 75, Mtb hypoxia rep -9, PrP 5UTR inh -13, BJeLR viability -1 and Mtb hypoxia rep growth 10.
For COc1ccc(NC(=O)COc2cc(O)c3c(c2)OC(C)(C)CC3=O)cc1 the results were Sa RN4220 lethal 14, ugtP null kill 13, Autofluor counter 4556, PrP 5UTR inh -1 and BJeLR viability 1.
`Cc1cc(Oc2ccc(=O)n(C)n2)nc(SCCOc2ccccc2)n1` gave Sa RN4220 lethal 2.8, ugtP null kill 6, Mtb hypoxia rep 0, PrP 5UTR inh -21, BJeLR viability -2 and Mtb hypoxia rep growth -8.
COc1ccc(C(=O)OC(C(=O)c2ccc(C)cc2)c2ccccc2)cc1 (centres undefined) was read as Sa RN4220 lethal -4.6, ugtP null kill 32, Autofluor counter 9375, Mtb hypoxia rep 8, PrP 5UTR inh -26, BJeLR viability 1 and Mtb hypoxia rep growth -9.
`CCCNS(=O)(=O)c1ccc(CCC(=O)NCc2ccc3c(c2)OCO3)cc1` gave Sa RN4220 lethal -0.8, ugtP null kill -11, Autofluor counter 3528, Mtb hypoxia rep -7, PrP 5UTR inh -11, BJeLR viability -14 and Mtb hypoxia rep growth -1.
For COc1ccccc1CC(=O)NC1CC1 the results were Sa RN4220 lethal -0.8, ugtP null kill 4, Autofluor counter 3684, Mtb hypoxia rep 3, PrP 5UTR inh -7, BJeLR viability -10 and Mtb hypoxia rep growth -6.
Screening CCOc1ccccc1NC(=O)NNC(=O)CCc1ccc(OC)cc1 returned Sa RN4220 lethal -1.1, ugtP null kill 4, Autofluor counter 5876, Mtb hypoxia rep 5, PrP 5UTR inh -23, BJeLR viability 9 and Mtb hypoxia rep growth -1.
For CCOc1ccc(S(=O)(=O)N2CCCC(C(=O)N3CCC(C(N)=O)CC3)C2)cc1Cl (centres undefined) the results were Sa RN4220 lethal 1.9, ugtP null kill 15, Autofluor counter 6038, Mtb hypoxia rep 6, PrP 5UTR inh -13, BJeLR viability -2 and Mtb hypoxia rep growth 7.
`CC(C)CN(C(=O)CSc1nnc(-c2cccs2)n1N)c1c(N)n(Cc2ccccc2)c(=O)[nH]c1=O` gave Sa RN4220 lethal 2.3, ugtP null kill 3, Autofluor counter 5426, Mtb hypoxia rep -2, PrP 5UTR inh -23, BJeLR viability -4 and Mtb hypoxia rep growth 0.
Screening CCOC(=O)c1ccc(C(=S)N2CCCC2)cc1 returned Sa RN4220 lethal 4.3, ugtP null kill 8, Autofluor counter 3296, Mtb hypoxia rep -1, BJeLR viability 20 and Mtb hypoxia rep growth -3.
For CCc1c(C)nc2ncnn2c1N1CCCC(C(=O)NCc2ccc3c(c2)OCO3)C1 (centres undefined) the results were Sa RN4220 lethal 3.7, ugtP null kill 3, Autofluor counter 22326*, Mtb hypoxia rep 8, PrP 5UTR inh -16, BJeLR viability 8 and Mtb hypoxia rep growth 11.
For CC(C)OC(=O)CSc1nc2ncc(Cl)cc2[nH]1 the results were Sa RN4220 lethal -8.8, ugtP null kill -6, Autofluor counter 5062, Mtb hypoxia rep -5, PrP 5UTR inh -8, BJeLR viability 7 and Mtb hypoxia rep growth 9.
Screening Cc1ccc(S(=O)(=O)NCCC(=O)NCCc2ccc(S(N)(=O)=O)cc2)cc1C returned Sa RN4220 lethal 3.4, ugtP null kill -1, Autofluor counter 8611, Mtb hypoxia rep -13, PrP 5UTR inh -9 and Mtb hypoxia rep growth 12.

A portion from further up:
For COc1ccc(NC(=O)COc2cc(O)c3c(c2)OC(C)(C)CC3=O)cc1 the results were Sa RN4220 lethal 14, ugtP null kill 13, Autofluor counter 4556, PrP 5UTR inh -1 and BJeLR viability 1.
`Cc1cc(Oc2ccc(=O)n(C)n2)nc(SCCOc2ccccc2)n1` gave Sa RN4220 lethal 2.8, ugtP null kill 6, Mtb hypoxia rep 0, PrP 5UTR inh -21, BJeLR viability -2 and Mtb hypoxia rep growth -8.
COc1ccc(C(=O)OC(C(=O)c2ccc(C)cc2)c2ccccc2)cc1 (centres undefined) was read as Sa RN4220 lethal -4.6, ugtP null kill 32, Autofluor counter 9375, Mtb hypoxia rep 8, PrP 5UTR inh -26, BJeLR viability 1 and Mtb hypoxia rep growth -9.

New compounds follow.
`O=C(Nc1ccccc1)Nc1nccs1` gave Sa RN4220 lethal -0.6, ugtP null kill -1, Autofluor counter 8610, Mtb hypoxia rep 3, PrP 5UTR inh -21, BJeLR viability 5 and Mtb hypoxia rep growth 8.
Screening COCCCNC(=O)CN1C(=O)c2ccccc2C1=O returned Sa RN4220 lethal 1.0, ugtP null kill 2, Autofluor counter 7634, Mtb hypoxia rep 7, PrP 5UTR inh -15, BJeLR viability -2 and Mtb hypoxia rep growth 2.
Nc1c(-c2ccsc2)cnc2ncnn12 was read as Autofluor counter 2405, PrP 5UTR inh -62 and BJeLR viability 3.
For O=C(COc1ccc(S(=O)(=O)N2CCOCC2)cc1)NCc1ccco1 the results were Sa RN4220 lethal 1.2, ugtP null kill 3, Autofluor counter 5740, Mtb hypoxia rep -1, PrP 5UTR inh -27, BJeLR viability -4 and Mtb hypoxia rep growth -1.
Cc1ccc(NC(=O)Cn2cnc3c(nnn3Cc3ccc(F)cc3)c2=O)cc1 was read as Sa RN4220 lethal 4.9, ugtP null kill -3, Autofluor counter 2775, Mtb hypoxia rep 3, PrP 5UTR inh -1, BJeLR viability 0 and Mtb hypoxia rep growth 0.
`COc1cccc(CN(CC2CCCO2)S(=O)(=O)c2ccc(S(=O)(=O)NCC3CCCO3)cc2)c1OC` (centres undefined) gave Sa RN4220 lethal 4.0, ugtP null kill 12, Autofluor counter 8841, Mtb hypoxia rep 9, PrP 5UTR inh -13, BJeLR viability 0 and Mtb hypoxia rep growth -8.
CCCCN(CCCC)CCNC(=O)c1ccc2nc(-c3ccccc3NC(C)=O)c(=O)[nH]c2c1 was read as Sa RN4220 lethal -3.9, ugtP null kill -8, Autofluor counter 4601, Mtb hypoxia rep -5, PrP 5UTR inh -24, BJeLR viability 1 and Mtb hypoxia rep growth 5.
For O=S(=O)(NCCN1CCCC1)c1cccc2cccnc12 the results were Autofluor counter 6633, PrP 5UTR inh -29 and BJeLR viability 3.
`Cc1nnc2ccc(-c3cccc(NS(=O)(=O)c4ccccc4[N+](=O)[O-])c3)nn12` gave Sa RN4220 lethal 2.4, ugtP null kill 7, Autofluor counter 6295, Mtb hypoxia rep 6, PrP 5UTR inh -26, BJeLR viability 8 and Mtb hypoxia rep growth 8.
CCN1C(=O)/C(=C/c2cc(C)n(C)c2C)SC1=Nc1ccc(OC)cc1 was read as Autofluor counter 3691, PrP 5UTR inh -10 and BJeLR viability 8.
Screening Cc1ccc(C(=O)CCC(=O)OCc2nnc(-c3ccccc3)o2)cc1 returned Sa RN4220 lethal 4.2, ugtP null kill 7, Autofluor counter 4022, Mtb hypoxia rep 9, PrP 5UTR inh 5, BJeLR viability 1 and Mtb hypoxia rep growth -4.
`Cc1ccccc1C(=O)NN=Cc1cccc2ccccc12` gave Sa RN4220 lethal 5.4, ugtP null kill -2, Mtb hypoxia rep 6 and Mtb hypoxia rep growth 4.
Screening CCOC(=O)c1c(C)[nH]c(C)c1S(=O)(=O)N(C)CC(=O)N(C)Cc1ccccc1 returned Sa RN4220 lethal 20, ugtP null kill -4, Autofluor counter 6046, Mtb hypoxia rep -5, PrP 5UTR inh -4, BJeLR viability 5 and Mtb hypoxia rep growth 8.
`Cc1ccc2[nH]c(=O)c(CN(C(=O)c3cccc([N+](=O)[O-])c3)C(C)(C)C)cc2c1` gave Sa RN4220 lethal 10, ugtP null kill 3, Autofluor counter 4296, Mtb hypoxia rep 4, PrP 5UTR inh -6, BJeLR viability 12 and Mtb hypoxia rep growth 6.
COc1ccc(CCN2CC(C(=O)N3CCCCCC3)CCC2=O)cc1 (centres undefined) was read as Sa RN4220 lethal 1.4, ugtP null kill 8, Autofluor counter 3902, Mtb hypoxia rep 8, PrP 5UTR inh -13, BJeLR viability -3 and Mtb hypoxia rep growth 4.
CCCc1cc(C(=O)N2CCCC(N3CCN(c4ccccc4F)CC3)C2)n(C)n1 (centres undefined) was read as Sa RN4220 lethal 1.0, ugtP null kill -1, Autofluor counter inconclusive, Mtb hypoxia rep -4, PrP 5UTR inh 4, BJeLR viability -7 and Mtb hypoxia rep growth 9.
CCN(C[C@H]1N[C@@](CC)(C(=O)OC)[C@H]2C(=O)N(Cc3ccccc3)C(=O)[C@@H]12)S(=O)(=O)c1ccc(OC)cc1 was read as Sa RN4220 lethal 2.9, ugtP null kill 3, Autofluor counter 3806, Mtb hypoxia rep -11, PrP 5UTR inh -9 and Mtb hypoxia rep growth 3.
Nc1nc(SCc2ccccc2)ns1 was read as Sa RN4220 lethal 3.9, ugtP null kill 3, Autofluor counter 3260, Mtb hypoxia rep -5, PrP 5UTR inh -42, BJeLR viability 11 and Mtb hypoxia rep growth 1.
Screening Cc1ccc(NC(=O)c2nc[nH]c2C(=O)N2CCN(c3ccccc3)CC2)cc1 returned Sa RN4220 lethal 3.4, ugtP null kill 2, Autofluor counter 3898, Mtb hypoxia rep 0, PrP 5UTR inh 1, BJeLR viability 0 and Mtb hypoxia rep growth -4.
For Cc1ccccc1-n1c(=O)c2ccccc2n2nnnc12 the results were Sa RN4220 lethal 1.5, ugtP null kill 0, Autofluor counter 2363, PrP 5UTR inh -6 and BJeLR viability -3.
`CCN1CCN(C(=O)CN(c2cccc(Br)c2)S(=O)(=O)c2ccccc2)CC1` gave Sa RN4220 lethal 12, ugtP null kill 7, Autofluor counter 2593, Mtb hypoxia rep 10, PrP 5UTR inh -26, BJeLR viability -7 and Mtb hypoxia rep growth -4.
O=C(NCCC1CCCCN1S(=O)(=O)c1ccc(F)cc1)C(=O)NC1CCCC1 (centres undefined) was read as Sa RN4220 lethal 0.6, ugtP null kill 9, Autofluor counter 5169, Mtb hypoxia rep -7, PrP 5UTR inh -8, BJeLR viability 1 and Mtb hypoxia rep growth 2.
For O=C(NCC(=O)N1CCCC(C(F)(F)F)C1)c1cccs1 (centres undefined) the results were Sa RN4220 lethal 2.3, ugtP null kill 5, Autofluor counter inconclusive, Mtb hypoxia rep -4, PrP 5UTR inh -5 and Mtb hypoxia rep growth 0.
Screening O=C1CC(c2ccc(O)cc2)Oc2ccccc21 (centres undefined) returned Sa RN4220 lethal 2.1, ugtP null kill -3, Autofluor counter 3715, Mtb hypoxia rep 2, PrP 5UTR inh -42 and Mtb hypoxia rep growth 12.

From PubChem BioAssay

No enrichment for hits (roughly 4% active in at least one column).
